High-throughput results as filed in PubChem BioAssay.
ClpP mod: qHTS Assay for Activators of ClpP; Potency, µM (highest dose often 57.5 µM), without a hit: at the top dose activity change, negative = active; 340,000 compounds, 1.9% hits; ATP-dependent Clp protease proteolytic subunit (Bacillus subtilis (strain 168)), P80244; purified B. subtilis ClpP, FRET peptide cleavage, 20 min; AID 651965, 2013; active = well fitted falling curve with a large enough effect; inconclusive = small, poorly fitted or top-dose-only effect; inactive = no such curve, though single readings can be large or run the other way; also: potency is read from the fitted curve at half-maximal effect; the source files actives as falling curves though it sought activators and does not explain the sign; nearly all actives have a fitted effect of over 65% in size; many hits overshoot -100%
Target sequence (P80244 whole entry, looked up): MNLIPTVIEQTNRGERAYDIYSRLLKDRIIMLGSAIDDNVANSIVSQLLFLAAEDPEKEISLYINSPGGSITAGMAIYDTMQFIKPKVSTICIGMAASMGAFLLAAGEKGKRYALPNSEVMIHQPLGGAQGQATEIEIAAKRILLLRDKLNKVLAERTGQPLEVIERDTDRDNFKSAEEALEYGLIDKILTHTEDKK
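Purified B. subtilis ClpP, 10 microg/mL final in Tris/HCl pH8 with KCl, BSA, glycerol and Tween-20, cleaved an Abz/nitrotyrosine-quenched decapeptide. Fluorescence (ex 320, em 430) was read at 0 and 20 min at room temperature. Delta was normalized to 5.8 microM ADEP and DMSO/no-enzyme controls.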
TRPML1 inh: blocks the human TRPML1 channel; TRPML1-inducible cells, Ca2+ dye fluorescence, FDSS; stronger effect = lower value; inhibition of EC80 agonist-evoked calcium signal; activity change, negative = inhibition, % (no concentration beside the values); 390,000 compounds, 0.02% hits; in the data active means activity change below about -50%; inconclusive means about -30% to -50%; inactive means above about -30%;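 also: stimulus is agonist 54-4 at its EC80 concentration; % is scaled to controls: 0 for no effect and ±100 for the full control effect; compound concentration not given in the record; the text of the record puts the active cut at -80%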
Target sequence (Q9GZU1 whole entry, looked up): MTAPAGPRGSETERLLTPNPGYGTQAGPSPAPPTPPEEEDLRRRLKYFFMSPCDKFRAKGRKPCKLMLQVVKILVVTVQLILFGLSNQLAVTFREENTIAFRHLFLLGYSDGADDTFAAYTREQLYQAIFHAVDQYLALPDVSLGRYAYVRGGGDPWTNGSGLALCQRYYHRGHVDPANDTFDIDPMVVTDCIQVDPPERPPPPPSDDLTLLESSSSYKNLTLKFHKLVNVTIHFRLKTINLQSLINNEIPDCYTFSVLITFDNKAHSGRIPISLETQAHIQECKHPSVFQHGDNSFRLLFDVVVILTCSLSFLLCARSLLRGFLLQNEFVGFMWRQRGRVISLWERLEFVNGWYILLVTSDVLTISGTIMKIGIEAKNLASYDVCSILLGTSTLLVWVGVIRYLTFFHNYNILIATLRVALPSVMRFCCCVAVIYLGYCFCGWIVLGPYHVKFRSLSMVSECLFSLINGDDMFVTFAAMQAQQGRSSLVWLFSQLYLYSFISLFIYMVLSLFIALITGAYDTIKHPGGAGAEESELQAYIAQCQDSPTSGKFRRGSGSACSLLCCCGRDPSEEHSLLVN
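Calcium fluorescence in TRPML1-DL cells induced overnight with Tet: a 110 s read after compound pin addition, then a 110 s antagonist read after challenge with 54-4 at 4 uM final (EC80).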
Menin MLL FP FL: inhibitors of human menin-MLL interaction, wild-type MLL peptide. Fluorescence polarization, fluorescein-MLL peptide displacement from menin. FP activity change, % at 61.4 µM. 290,000 tested, under 10 active; inconclusive = falling polarisation curve, or a change in total fluorescence; inactive = total fluorescence flat and polarisation flat or rising; no compound was filed as active; the % refers to the polarisation; negative = inhibition;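 also: % of control where 0% means no effect; inhibitors lower the polarisation; unlabelled MLL peptide was the positive control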
TRPML1 ag: activates the human TRPML1 channel. Q9GZU1. 410,000 compounds, 0.12% hits. AID 624414. activation, % (concentration not given with the values). TRPML1-expressing cells, Ca2+ dye fluorescence, FDSS; host cell line not named in the record; reference of the full effect not given here; in the data active = activation above about 50%; inconclusive = about 30% to 50%; inactive = below about 30%; also: 0% is about no effect; the text of the record puts the active cut at 80%
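In this qHTS format, compounds were pin-transferred onto Ca8-dye-loaded TRPML1-DL cells induced with Tet overnight, and intracellular Ca2+ fluorescence was recorded kinetically for 110 s after a 10 s baseline. A subsequent 4uM final 54-4 (EC80) addition followed by a second 110 s read served as the antagonist phase.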
gsp agonist: agonists of gsp mutant (McCune-Albright syndrome). gsp mutant cells, cAMP HTRF, 30 min; control for the full effect not named in the record. Potency, µM (highest dose often 76.9 µM), for the others: at the top dose activation (cAMP increase), actives largely listed as activators. 340,000 compounds, 0.13% hits; active = well fitted activation curve with a large enough effect; inconclusive = small, poorly fitted or top-dose-only effect, or another doubt; inactive = no such curve, though single readings can be large or run the other way; cell line not stated here;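 also: phosphodiesterase inhibitor Ro 20-1724 added with compounds to block cAMP breakdown; potency is read from the fitted curve at half-maximal effect; nearly all actives have a fitted effect of over 60% in size; about a fifth of the inactives were tested at one dose only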
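Cells stably selected in G418 were plated at 2000/well, grown 16-24 hr, then given compounds in DMSO with the PDE inhibitor […] (300 uM solution added) for 30 min at 37C; cAMP was read by HTRF.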
gsp antag: gsp mutant antagonism | Potency, µM (series often up to 76.9 µM), for inactives: at the top dose activity change, negative = inhibition, most hits filed as inhibitors | 340,000 compounds, 0.4% hits | gsp-mutant cells, cAMP HTRF, 30 min; control for the full effect not named in the record; active = falling curve of any shape with a large fitted effect; inconclusive = falling curve, mostly with a smaller effect; inactive = flat or rising curve; cell line not stated here;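 also: intracellular cAMP measured with PDE inhibitor Ro 20-1724 present during compound exposure; potency is read from the fitted curve at half-maximal effect; % is scaled to controls: 0 for no effect and ±100 for the full control effect; nearly all actives have a fitted effect of over 65% in size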
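Cells in G418 medium, seeded 16-24 h, 37C; buffer exchange to DPBS + 1 mM CaCl2, 0.5 mM MgCl2, 0.05% BSA; cpds in DMSO + […] (300 uM stock), 30 min 37C; HTRF cAMP detection.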
The depositor's hits bear a star; ? = inconclusive; . = no result given; & = joins results of further samples; [ ] = another dose, or the depositor's remark.

SMILES	ClpP mod	TRPML1 inh	Menin MLL FP FL	TRPML1 ag	gsp agonist	gsp antag
Cc1ccc(-c2noc(CNC(=O)c3ccccc3)n2)cc1	-1.6%	-10	.	-1.0	.	.
NC(=O)CSc1nnc(COc2ccccc2)n1Cc1ccco1	2.8%	18	1.7	2.1	-31%[inhibitor]	0%
CC(NC(=O)c1cc(F)c(F)cc1Cl)C1CC2CCC1C2 (stereo not drawn)	.	-25	3.5	1.6	2%	-4%
CC(C)(CNC(=O)c1cccc(S(=O)(=O)NCc2ccccc2)c1)N1CCOCC1	-1.2%	-21	.	-0.5	12%	9%
O=C(c1ccccc1F)N1CCN(S(=O)(=O)c2ccc3c(c2)OCCO3)CC1	0.2%	9	3.2	0.9	-34%	2%
O=C1/C(=C/c2cccs2)Cc2ccccc21	-1.9%	18	8.6	0.0	15%	0%
NC(=O)CC(NC(=O)Cc1ccc(Br)cc1)c1ccc(NC2CCC2)c([N+](=O)[O-])c1 (stereo not drawn)	-1.0%	3	1.8	-0.4	.	2%
CC1CCCN(C(=O)COC(=O)c2ccc(=O)n(Cc3ccccc3)n2)C1 (stereo not drawn)	-7.1%	13	.	0.7	-13%	2%
O=C(Nc1ccc2ccccc2n1)c1ccccc1	0.3%	10	5.0	0.9	-61%[inhibitor]	-13%
O=C(Nc1cccc(Cl)c1)N1CCSc2ccccc21	0.3%	19	.	1.2	.	.
Cc1ccn2c(=O)nc(SCC(=O)NCc3ccco3)nc2c1	-6.6%	1	.	0.4	-15%[15.4 µM]	3%
COc1cc(NS(=O)(=O)c2ccc3c(c2)CCN3S(C)(=O)=O)cc(OC)c1	0.4%	8	.	0.6	.	.
Cc1ccc(N(Cc2ccc(C(=O)NCC3CCCO3)cc2)S(C)(=O)=O)cc1C (stereo not drawn)	.	7	-1.4	0.8	11%	-1%
CCN(CC)C(=O)c1scc2c1OCCO2	0.5%	8	6.5	-0.2	-20%	-1%
Cc1cccc(NC(=O)/C(C#N)=C/c2ccc(C)o2)c1	1.4%	5	.	-0.5	.	.

Reprinted from the part before: 3 entries, then new ones.
SMILES	ClpP mod	TRPML1 inh	Menin MLL FP FL	TRPML1 ag	gsp agonist	gsp antag
Cc1ccc(N(Cc2ccc(C(=O)NCC3CCCO3)cc2)S(C)(=O)=O)cc1C (stereo not drawn)	.	7	-1.4	0.8	11%	-1%
CCN(CC)C(=O)c1scc2c1OCCO2	0.5%	8	6.5	-0.2	-20%	-1%
Cc1cccc(NC(=O)/C(C#N)=C/c2ccc(C)o2)c1	1.4%	5	.	-0.5	.	.
CCOC(=O)c1sc2c(c1C)c(=O)n(Cc1ccccc1)c(=O)n2CCN(C)C	-3.6%	39	-2.2	0.5	-54%[inhibitor]	-15%
Cc1noc(C)c1C(=O)OCC(=O)c1c[nH]c2ccccc12	-1.7%	11	-0.7	0.3	-1%	-7%
Cc1ccc(C(C(=O)NC2CCCC2)N(C(=O)CCC(=O)Nc2cc(C)on2)c2ccccc2)cc1 (stereo not drawn)	1.0%	1	0.4	0.0	-17%	0%
Cc1ccc(C(=O)NC2CCN(S(=O)(=O)c3ccccc3F)CC2)cc1	-3.1%	-5	-3.4	0.4	-34%[15.4 µM]	6%
CCOC(=O)c1c(C)[nH]c(C)c1C(=O)COC(=O)COc1ccc(Cl)c(C)c1	-0.4%	-23	.	4.1	0%[15.4 µM]	7%
C/C(=N\NC(=S)NC(C)C)c1ccccc1OC(F)F	.	8	-1.5	1.2	-2%[15.4 µM]	21%
COc1ccc(CNC(=O)Cn2cc(C(F)(F)F)ccc2=O)cc1	-0.5%	-20	2.9	0.5	9%	3%
CCN(C(=O)Cc1c(C(=O)O)[nH]c2ccccc12)c1cc(OC)ccc1OC	-3.5%	6	1.8	0.0	-2%	-7%
Cc1ccc(C)c(NC(=O)C2CCN(c3nn4c(=O)cc(C)nc4s3)CC2)c1	0.1%	-4	.	-0.8	.	.
CC(C)(C)NC(=O)C[C@H]1C[C@H](C(=O)N2CCOCC2)[C@@]2(CCC3CCCC3)c3[nH]c4cc(-c5ccco5)ccc4c3CCN2C1=O	5.1%	21	.	0.4	.	-16%
COc1ccccc1N/C(=N/S(=O)(=O)c1ccc(Cl)cc1)c1ccccc1	-1.3%	39	0.0	2.4	-17%	-17%
COc1ccc(OC)c(NC(=O)CNC(=O)Cn2cnc3ccccc3c2=O)c1	1.0%	4	3.2	-0.4	-26%	4%
COc1ccccc1CCNC(=O)C(=O)NCC1OCCN1S(=O)(=O)c1cc(F)ccc1F (stereo not drawn)	1.1%	-2	0.4	-0.4	-8%	5%
Cc1ccccc1OCC(=O)O/N=C(\N)Cc1cccs1	-0.2%	6	-1.0	-0.3	-23%	5%
CCc1ccc(/C=C2\CN(CC)Cc3c2nc2ccccc2c3C(=O)O)cc1	-4.3%	-11	?	-0.3	-7%	10%
Cc1nnc(SCC(=O)Nc2ccccc2F)n1Cc1ccco1	0.9%	1	-3.7	0.6	-2%	6%
COc1ccc(OCC(=O)N(Cc2ccc(C)o2)C2CCS(=O)(=O)C2)cc1 (stereo not drawn)	-2.3%&0.0%	-1&-2	.	0.3&-0.1	-8%	5%
Cc1nc(NC(=O)COC(=O)C2CC3CCCC(C2)C3=O)c(Cl)cc1Cl (stereo not drawn)	-0.5%	16	.	0.6	24%[15.4 µM]	1%
O=C(NCc1cccs1)C1CC(O)CN1C(=O)Nc1ccccc1 (stereo not drawn)	.	-12	-3.5	0.3	-9%	2%
COc1cc(NC(=O)c2cccc(Cl)c2)ccc1NC(=O)c1cccs1	.	-2	0.9	-0.1	-9%[15.4 µM]	?
Cc1cc(NS(C)(=O)=O)c(=O)n(Cc2c(F)cccc2Cl)c1	4.8%	16	0.6	-0.4	-80%[inhibitor]	1%
CCn1cc(C2=NOC(C(=O)Nc3cc(OC)c(Cl)cc3OC)C2)c(C)n1 (stereo not drawn)	1.6%	32	0.3	-0.2	35%	-5%
COc1ccc(-c2csc3ncnc(Nc4ccc(O)cc4)c23)cc1	0.7%	5	3.9	-0.4	-4%	-8%
O=C(NCc1ccco1)C(=S)N1CCCC1	.	7	-0.2	-1.4	-8%[15.4 µM]	-33%
COc1cccc(/C=C/C(=O)OCC(=O)NCc2ccc(Cl)cc2)c1	.	8	2.7	2.4	13%[15.4 µM]	-8%
CCOC(=O)C1(C)Oc2ccc(S(=O)(=O)CC)cc2NC1=O (stereo not drawn)	.	11	-0.9	0.8	6%[15.4 µM]	9%
S=C(NCc1ccco1)Nc1ccc2c(c1)OCCO2	.	-3	?	-0.4	-5%[15.4 µM]	.
CCCCOC(=O)c1ccc(NS(=O)(=O)c2c(C)nc3scc(C)n3c2=O)cc1	-5.1%	-4	.	0.7	.	.
COC(=O)c1c(NC(NC(=O)C(C)C)C(Cl)(Cl)Cl)sc2c1CCCC2 (stereo not drawn)	0.3%	16	8.3	0.6	13%	12%
COc1ccc(NCC(=O)Nc2cccc(S(=O)(=O)N3CCCC3)c2)cc1Cl	-1.0%	7	.	0.8	19%	-28%
CC(C)(C)c1cc(NC(=O)COC(=O)c2nccnc2N)n(-c2ccccc2)n1	22µM*	-4	-7.3	-0.3	-15%	10%
CCCCCCOc1ccc(C(=O)O)cc1C#N	-1.9%	-30	1.0	0.9	-1%	-10%
COc1ccc(C(=O)Oc2ccc3oc(=O)sc3c2)cc1	0.4%	15	-0.3	0.0	22%	-9%
Cc1cc(NS(=O)(=O)c2ccc(NC(=S)NC(=O)c3ccncc3)cc2)no1	.	1	2.8	-0.6	-11%[15.4 µM]	-1%
COc1ccc(C2C(C(C)=O)=C(O)C(=O)N2CCc2ccccc2)c(OC)c1 (stereo not drawn)	-4.2%	16	3.6	1.6	?	-5%
O=C(Cn1nnc(-c2ccccc2)n1)Nc1ccc2c(c1)OCO2	-3.9%	11	-0.3	0.3	-7%	2%
COC(=O)CCCC1=CC2=CC(=O)C(C)(OC(=O)c3cccs3)C(=O)C2=CN1C1CCCC1 (stereo not drawn)	-1.4%	-3	-5.1[11.7 µM]	0.0	.	-8%
NC(=O)c1ccccc1OCc1nc2ccccc2s1	.	-6	.	0.2	-3%	-7%
CC(=O)Oc1ccc(C(=O)[C@H]2[C@H]3C(=O)N(c4ccccc4)C(=O)[C@H]3[C@@H]3C=CC=NN32)cc1	1.6%	20	.	-0.3	0%	2%
O=c1[nH]c2cc3c(cc2cc1CN(CCCO)Cc1nnnn1Cc1ccc(F)cc1)OCO3	32µM*	-28	7.0	1.9	4%	10%
CC(=O)c1ccc(NC(=O)Nc2cccnc2)cc1	-1.1%	-5	.	0.5	30%	8%
CCc1ccccc1NC(=O)CN1C(=O)C2CCCN2c2ncc(Cl)cc21 (stereo not drawn)	-7.5%	9	-1.3	-1.3	-2%	-6%
O=C(NNC1=Nc2ccccc2SC1)c1ccc(Cl)cc1	.	-6	0.9	1.2	0%[15.4 µM]	-1%
O=S(=O)(Nc1cccc(-c2ccc3nncn3n2)c1)c1cccc(F)c1	0.5%	17	.	3.5	17%[15.4 µM]	-14%
COC(=O)/C=C1\N/C(=N\c2nc(C)cc(C)n2)N(c2ccc(Cl)cc2)C1=O	.	18	0.2	0.4	7%[15.4 µM]	-4%
CCc1nc2c(OCc3cc(Cl)cc(Cl)c3)cccn2c1N(C)C(=O)c1cccc(OC)c1	-0.2%	2	.	-1.0	.	.
CCOC(=O)N1CCN(CC(=O)c2ccc3c(c2)CCN3)CC1	-2.8%	0	2.6	-0.4	2%	-3%
COc1ccc(-c2nnc(SCC(=O)Nc3ncc(C)s3)n2-c2ccccc2)cc1OC	0.5%	1	-1.3	4.8	10%	-6%
Cc1ccc(NC(=O)c2ncn(CC(=O)NCC(C)c3ccccc3)n2)cc1C (stereo not drawn)	2.9%	45	.	0.0	.	5%
Cc1ccc(Cn2ccn(Cc3cccc(C(F)(F)F)c3)c(=O)c2=O)cc1	-2.2%	61	.	0.1	.	.
O=C(Nc1ccccc1-c1nc2ccccc2s1)c1ccc(Br)o1	-2.8%	20	0.2	-0.3	?	1%
O=C(/C=C/c1ccccc1[N+](=O)[O-])Nc1cc(S(=O)(=O)N2CCOCC2)ccc1N1CCOCC1	1.0%	9	.	-0.5	13%	-10%
